# Screening results deposited in PubChem BioAssay by several laboratories.
# HNF4A DNA FP: change in binding of human HNF4 alpha to DNA. P41235. HNF4a-FITC DNA binding, fluorescence polarization, 1 h. activity change, % at 10 µM. 360,000 compounds, 0.3% hits; in the data active = activity change above about 30%, passing the limit was not always enough;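 note: controls were the assay level and a saturating level of protein; the project sought stronger binding though the title names inhibitors; some compounds called inactive have numbers as strong as hits; positive values seem to mean higher polarization but the record does not say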
# ALR inh: human ALR oxidase inhibition via reduced H2O2 | P55789 | purified ALR, DTT oxidation, H2O2 HRP-luminol luminescence | inhibition, % (no concentration beside the values) | 290,000 compounds, 3.8% hits;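 active = mean and each replicate at 75% or more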;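 note: stock transfer was 7.5 nL into about 7.5 µL; 0% = neutral wells and 100% = wells with inactivated enzyme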
# Target sequence (P55789 whole entry, looked up): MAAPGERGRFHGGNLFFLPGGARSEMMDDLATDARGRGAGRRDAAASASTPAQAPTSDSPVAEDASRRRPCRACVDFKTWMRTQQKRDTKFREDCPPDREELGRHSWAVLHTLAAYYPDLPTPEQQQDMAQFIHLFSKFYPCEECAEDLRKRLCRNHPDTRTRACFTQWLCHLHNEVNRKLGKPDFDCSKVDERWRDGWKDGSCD
# rRNA inh HTS: inhibitors of bacterial rRNA selective over humanized ribosomes | GFP signal change (wild-type ribosome), % (test concentration not listed) | E. coli WT GFP vs humanized-ribosome RFP mutants, fluorescence, 24 h; hits give low values; DMSO median 0, no signal -100 | 350,000 compounds, 1.6% hits | AID 720706;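 active = significant combined selectivity score with lowered wild-type GFP, culture density cut under 30%, mutant RFP and density less affected; inactive = any of these conditions unmet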; note: one replicate is shown; some compounds called inactive have numbers as strong as hits
# FGF22 binding: shifts melting point of recombinant human FGF22; Q9HCT0; recombinant FGF22 thermal shift, SYPRO orange fluorescence; percent of sucrose octasulfate shift, DMSO zero; calls only at 9.99 µM; 340,000 compounds, 1.5% hits;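 active = melting point raised past a set limit in the mean and every replicate; three in four hits are not shown here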
# Beta2AR agonist: activates human beta-2 adrenergic receptor causing internalization. P07550. Am2.2-beta2AR cells, FAP receptor internalization, flow cytometry; reference of the scale not given here. response, % (test concentration not listed). 340,000 compounds, 0.43% hits;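 active = response above a set limit, near 3 SD of response in nonfluorescent compounds, cut at about 42% in these data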;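 note: stock transfer was 100 nL into about 11 µL; a reference agonist was the positive control; negative values mostly stem from fluorescent compounds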
# Target sequence (P07550 whole entry, looked up): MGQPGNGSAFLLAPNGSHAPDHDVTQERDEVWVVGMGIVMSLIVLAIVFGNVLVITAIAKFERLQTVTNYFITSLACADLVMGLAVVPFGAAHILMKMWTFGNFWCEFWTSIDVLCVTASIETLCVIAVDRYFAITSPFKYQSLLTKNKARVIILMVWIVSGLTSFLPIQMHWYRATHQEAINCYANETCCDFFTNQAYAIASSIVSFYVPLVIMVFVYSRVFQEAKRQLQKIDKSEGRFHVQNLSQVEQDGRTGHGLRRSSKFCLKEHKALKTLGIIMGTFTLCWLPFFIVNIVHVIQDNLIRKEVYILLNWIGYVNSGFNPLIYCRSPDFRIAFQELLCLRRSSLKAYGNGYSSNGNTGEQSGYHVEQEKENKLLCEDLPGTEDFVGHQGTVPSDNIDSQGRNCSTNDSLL
# Ecoli growth: blocks Escherichia coli growth; OD600, 23 h; hits give low values; OD600 absorbance (no concentration beside the values); 330,000 compounds, 0.21% hits; AID 1053175;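 active = OD600 absorbance below the run mean of sample wells minus 3.6 SD, in any replicate, cut at about 0.56 in these data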;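 note: stock transfer was 300 nL into about 60 µL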
# UCH37 DUB inh: blocks the human deubiquitinase UCH37; Q9Y5K5; purified proteasome/UCH37, Ub-AMC cleavage fluorescence; inhibition, % (test concentration not listed); 330,000 compounds, 0.33% hits;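 active = mean of two replicates above 20%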;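 note: 0% = compound-free wells with enzyme and 100% = wells lacking proteasome; stock transfer was 100 nL into about 20 µL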
# Target sequence (Q9Y5K5 whole entry, looked up): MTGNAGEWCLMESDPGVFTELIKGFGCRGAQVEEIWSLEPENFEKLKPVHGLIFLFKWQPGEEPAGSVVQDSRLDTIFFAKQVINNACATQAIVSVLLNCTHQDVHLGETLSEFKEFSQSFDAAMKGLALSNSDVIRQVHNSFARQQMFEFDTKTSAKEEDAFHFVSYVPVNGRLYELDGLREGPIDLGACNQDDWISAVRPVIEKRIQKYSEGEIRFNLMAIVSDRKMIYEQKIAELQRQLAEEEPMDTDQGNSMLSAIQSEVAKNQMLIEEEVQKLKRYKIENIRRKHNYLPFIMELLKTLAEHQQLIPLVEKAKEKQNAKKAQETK
#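 Material: human UCH37 enzyme supplied as purified proteasome complex. Measure: % inhibition of Ub-AMC cleavage fluorescence. Medium: pH 7.4 Tris-HCl (50 mM) with ovalbumin, ATP-MgCl2, DTT. Times: 30 min preincubation with enzyme, 25 min cleavage at room temperature. Detection: AMC fluorescence intensity at 355/460 nm.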
# rRNA inh HTS OD600: recorded beside rRNA inh HTS, whose call it bears; OD600 change, %; measured here: OD600 growth;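 optical density of the mix in the first replicate; 0 = DMSO median and -100 = no signal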
# rRNA inh HTS RFP: also measured in rRNA inh HTS; calls as there; RFP signal change, %; measured here: RFP humanized mutant strains;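 first replicate; 0 = DMSO median and -100 = no signal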
# * = called active by the depositor; i = inactive; . = no result given; & = joins results of further samples.
SMILES,HNF4A DNA FP,ALR inh,rRNA inh HTS,rRNA inh HTS OD600,rRNA inh HTS RFP,FGF22 binding,Beta2AR agonist,Ecoli growth,UCH37 DUB inh
CCCCn1c(N)c(N(CC(C)C)C(=O)C2CCN(S(=O)(=O)c3ccc(C)c(C)c3)CC2)c(=O)[nH]c1=O,0.5,-2,-1,1,-1.6,i,0,0.67,-4.2
CCc1cc(/C(Cc2cscn2)=N\O)c(O)cc1O,0.0,63,.,.,.,.,-7,.,.
Cc1ccc2oc(=O)n(CC(=O)N3CCOCC3)c2c1,2.4,2,.,.,.,i,0,0.69,-1.9
Cc1c(C(=O)N2CCN(C/C=C/c3ccccc3)CC2)oc2c(F)cccc12,1.6,2,-50,-78,-14,i,-5,0.63,2.3
CCNC(=O)CN(c1ccc(Cl)cc1)S(=O)(=O)c1ccccc1,-0.9,-1,.,.,.,.,-2,0.74,-0.8
O=C(CN(Cc1ccccc1)C(=O)CNS(=O)(=O)c1ccccc1)NCc1ccco1,1.1,.,-4,0,-0.6,i,8,0.67,6.7
Cc1ccccc1NC(=O)c1cccc(C(=O)Nc2ccccc2C)c1,2.5,-2,4,9,0.1,i,7,0.69,1.0
O=C(Cc1cccc(NC(=O)C2CCN(C(=O)c3ccccc3)CC2)c1)Nc1cccc(C(=O)N2CCCCC2)c1,-0.4,.,-1,2,-4.2,.,-12,0.72,-2.7
CCS(=O)(=O)N1Cc2ccccc2CC1C(=O)Nc1nnc(SCc2ccc(C#N)cc2)s1 (configuration not stated),-8.4,-7,-14,-15,13,i,-4,0.68,1.0
CCOc1ccc(OCCN2CCCCC2)cc1,1.5,.,.,.,.,.,9,0.7,3.6
COc1ccc(-c2cnc(SCC(=O)Nc3cc(C)on3)n2Cc2ccco2)cc1,-0.9,-3,-30,-36,6.0,.,2,0.68,1.4
CCCCn1c(SCC(=O)c2c(N)n(C3CC3)c(=O)[nH]c2=O)nc2cc(S(N)(=O)=O)ccc21,3.3,.,-5,-6,4.4,i,-3,0.69,3.8
Nc1ccccc1/C=N\N=C/c1ccccc1N,2.5,-3,38,13,1.9,i,8,.,.
Cc1oc(-c2cccc(Cl)c2)nc1CN1CCC(C(=O)NCc2ccco2)CC1,-1.7,-15,.,.,.,.,4,0.68,1.4
Cc1ccc(NC(=O)COc2ccccc2C#N)cc1S(=O)(=O)N1CCCCCC1,0.2,.,-25*,-16*,3.3*,i,7,0.67,2.2
COc1ccc(OC)c(NC(=O)C2CCN(C(=O)C3CC(=O)N(c4ccc(C)cc4)C3)CC2)c1 (configuration not stated),0.0,-20,-2,3,2.7,i,-3,0.69,3.8
COc1ccc(-c2nc(CN3CCN(Cc4cccc(Cl)c4)CC3)c(C)o2)cc1,3.2,-2,-33*,-23*,-1.0*,i,0,0.63,-3.8
CCCN(CCC)S(=O)(=O)c1ccc(C(=O)Nc2nnc(CSC)o2)cc1,4.0,38,.,.,.,.,5,0.74,-0.6
Cn1c(=O)c2c(nc(CN3CCOCC3)n2CC(=O)c2ccccc2)n(C)c1=O,0.1,19,.,.,.,.,-4,0.67,1.8
Cc1ccc2ccccc2c1C(O)c1ncc(-c2ccc(Cl)cc2)[nH]1 (configuration not stated),3.7,.,-53,-73,-15,i,.,.,.
Cc1ccc(C(=O)OCC(=O)Nc2cccc(Cl)c2C)c(O)c1,0.0,-11,17,11,0.1,i,-3,0.69,-8.6
NC(CO)c1csc(NC(=O)Nc2ccccc2Cc2ccccc2)n1 (configuration not stated),-2.6,.,0,-7,3.8,i,.,.,.
CCc1ccc(CNC(=O)c2ccc3nc(C4CCCCC4)oc3c2)nc1,7.7,2,-8,-17,2.7,i,-14,.,.
O=C1CCN(Cc2ccco2)C(=S)N1,-2.5,.,11,16,4.0,i,-5,0.68,2.5
CCc1noc(C)c1C(=O)N1CCCC(Nc2cccc(F)c2)C1 (configuration not stated),-2.2,.,-3,8,-3.9,i,.,.,.
Cc1cccn2c(CNCC3(c4ccccc4)CCCC3)c(C(=O)N3CCOCC3)nc12,-0.9,-3,1,-6,-2.6,i,10,0.65,-2.7
C=CCNC(=O)C(=O)c1cccn1-c1ccsc1C(=O)OC,-1.0,4,.,.,.,.,-14,0.73,6.2
CCOc1ccccc1N1C(=O)CC(Sc2ccccc2N)C1=O (configuration not stated),0.3,.,-6,-25,3.6,i,.,.,.
O=C(CCCN1C(=O)/C(=C/c2ccc3c(c2)OCO3)SC1=S)Nc1ccc(C(=O)O)cc1,24,.,.,.,.,i,8,0.7,9.4
COc1ccc(/C=N/NC(=O)c2cccc(NC(=O)c3ccccc3)c2)c(C(=O)O)c1OC,0.3,33,.,.,.,.,0,.,.
CCOc1ccc(NC(=O)CNC(=O)Cc2ccccc2)cc1,-0.4,.,6,13,-1.4,i,9,0.61,2.5
COc1ccccc1-n1cnnc1SCC(=O)Nc1cccc(S(N)(=O)=O)c1,-1.7,-6,6,4,-3.3,i,-1,0.66,3.0
O=c1c(Cl)c(Cl)cnn1-c1ccccc1,-0.6,.,-1,-7,2.3,i,34,0.66,2.3
CCc1nc2sc3ccccc3c(=O)c2c(=O)n1Cc1ccco1,-8.6,0,.,.,.,.,-42,0.68,4.3
Cc1ccc(NC(=O)c2ccc([N+](=O)[O-])o2)cc1C,-0.4,-23,-39,-53,-8.5,i,14,0.47*,5.2
O=S(=O)([N-]c1nc2ccccc2nc1-n1cc[n+](Cc2ccccc2)c1)c1ccccc1,3.3,2,-9,-11,-0.3,i,1,0.63,-130
CC(=O)OCc1c(C(F)(F)F)nn(C)c1Oc1cccc(C(F)(F)F)c1,5.2,-8,.,.,.,.,3,0.69,1.9
Cc1ccc(S(=O)(=O)N2CCN(c3ncnc4scc(-c5ccccc5)c34)CC2)cc1,1.0,.,.,.,.,i,16,0.72,5.2
CCCOC1CCCN(C(=O)c2ccc(OC3CCN(C(=O)COC)CC3)cc2)C1 (configuration not stated),2.4,-4,14,10,0.9,i,1,0.67,1.7
COc1ccc(NC(=S)N2c3ccccc3CC2C)cc1OC (configuration not stated),-2.8,55,12,9,4.2,i,-5,0.71,7.3

# One compound at a time (already shown). Order of screens: HNF4A DNA FP, ALR inh, rRNA inh HTS, rRNA inh HTS OD600, rRNA inh HTS RFP, FGF22 binding, Beta2AR agonist, Ecoli growth, UCH37 DUB inh
# C=CCNC(=O)C(=O)c1cccn1-c1ccsc1C(=O)OC as listed: -1.0, 4, ., ., ., ., -14, 0.73, 6.2
# Cc1cccn2c(CNCC3(c4ccccc4)CCCC3)c(C(=O)N3CCOCC3)nc12 as listed: -0.9, -3, 1, -6, -2.6, i, 10, 0.65, -2.7
# O=C1CCN(Cc2ccco2)C(=S)N1 as listed: -2.5, ., 11, 16, 4.0, i, -5, 0.68, 2.5

# Later entries:
SMILES,HNF4A DNA FP,ALR inh,rRNA inh HTS,rRNA inh HTS OD600,rRNA inh HTS RFP,FGF22 binding,Beta2AR agonist,Ecoli growth,UCH37 DUB inh
O=C(N1CCN(c2cccc(Cl)c2)CC1)C1(S(=O)(=O)c2ccc(Cl)cc2)CC1,1.1,-6,.,.,.,.,1,0.75,5.7
Nc1ncnc2c1ncn2C1CCC(CO)C(O)C1 (configuration not stated),-1.6,4,9,-2,-5.0,i,4,0.68,2.1
Cc1cc(Nc2ccccc2)c2c([N+](=O)[O-])ccc(C)c2n1,-2.6,-10,.,.,.,.,4,0.61,1.4
COc1ccc(Cl)cc1NC(=O)NC1CCCCC1,0.8,14,.,.,.,.,2,0.74,-3.5
Cc1ccc(-n2c(CSc3nc(C)cc(C)n3)nnc2SCC(=O)NCc2ccco2)cc1,3.1,-7,.,.,.,.,-7,0.69,0.7
CS(=O)(=O)N1CCN(c2ccc([N+](=O)[O-])c(N3CCOCC3)c2)CC1,4.1,-2,.,.,.,.,-8,0.76,-4.5
CCOC(=O)c1c(NC(=O)COC(=O)c2ccc(O)cc2)sc(C(=O)N(C)C)c1C,1.9,-5,-17,-18,0.0,i,11,0.66,1.3
O=C(N/N=C/c1ccc(OCC2COCCO2)cc1)c1ccc(Br)cc1 (configuration not stated),1.9,-1,8,6,3.0,i,5,.,.
Cc1ccc(C(=O)Nc2ncnc3sc4c(c23)CCCCC4)cc1,1.1,-8,.,.,.,.,-12,0.68,-3.3
COc1ccccc1N(CC(=O)NCc1ccccc1)C(=O)CCC(=O)Nc1ccccn1,-1.8,-2,.,.,.,.,-11,0.73,2.6
COc1cc(C=C(C#N)C(=O)c2ccccc2)cc(OC)c1OC,2.9,.,2,0,3.9,i,.,.,.
Nc1nnn(CC(=O)N/N=C/c2cccc3ccccc23)n1,1.7,-11,.,.,.,.,2,.,.
Cc1scc(C(=O)N/N=C/c2ccsc2)c1C,-1.5,-14,6,6,-2.3,i,-7,.,.
CNC(=O)C(=O)NCC1OCCN1S(=O)(=O)c1ccc(C)cc1 (configuration not stated),1.9,1,3,1,0.8,i,-5,0.71,4.1
C=CC[n+]1c(-c2ccc(C)cc2)csc1NNC(=O)Nc1ccccc1,2.5,51,.,.,.,.,13,0.7,1.8
Cc1nc(CC(=O)O)c(-c2ccccc2)s1,2.4,.,.,.,.,.,0,0.72,-1.5
COc1ccc(C2=Nc3ccccc3NC(=O)C2N(C(=O)c2cc3ccccc3[nH]2)c2ccccc2)cc1 (configuration not stated),7.0,.,5,6,-2.6,i,.,.,.
CC1Cc2cc(-c3csc(N)n3)ccc2O1 (configuration not stated),0.8,.,-7,-2,27,i,2,0.68,1.4
O=[N+]([O-])c1cccc(-c2nnc(-c3ccccc3)o2)c1,3.0,6,1,-1,-6.3,i,-8,0.67,0.9
CC12CCC(C(=O)N(CC(O)CN3CCN(Cc4ccccc4)CC3)C1=O)C2(C)C (configuration not stated),-0.9,-2,14,14,0.5,i,-3,0.65,2.4
CC(=O)c1c(C)[nH]c(C(=O)OCc2ccccc2F)c1C,-0.2,-9,3,2,0.4,i,2,0.73,2.5
Cc1ccccc1CN1CCNC(=O)C1CC(=O)NC1CCCCCCC1 (configuration not stated),3.4,-11,-10,-10,7.4,i,-2,0.72,2.7
CCCCC[n+]1ccn(-c2nc3ccccc3nc2[N-]S(=O)(=O)c2ccc(C)cc2)c1,2.8,-7,.,.,.,.,-7,0.73,-47
Cc1ccc(C2C3=C(NCCN=C3c3ccccc3)C(=O)N2c2ccccc2)cc1 (configuration not stated),0.7,-2,.,.,.,.,10,0.67,-0.5
COc1ccc(C2c3ccc4ccccc4c3Oc3ncn4nc(Cc5ccccc5)nc4c32)cc1OC (configuration not stated),2.6,-9,.,.,.,.,1,0.71,0.5
CC(C)c1ccc(Oc2cccc(C(=O)/C(C#N)=C/N(C)C)c2)cc1,2.6,98*,.,.,.,.,2,0.67,-0.1
CN(CC(=O)Nc1ccc(F)cc1)C(=O)CNC(=O)C1CCCCC1,-1.6,-4,22,13,6.0,i,-4,0.66,1.1
NC(=O)CC(NC(=O)c1ccccc1)c1ccc(NCCc2cccc(F)c2)c([N+](=O)[O-])c1 (configuration not stated),4.3,-2,14,6,-1.2,i,1,0.67,2.6
CCOC(=O)Cn1c(=O)oc2cc(S(=O)(=O)N(C)c3ccc(OC)cc3)ccc21,-1.9,-5,-8,-7,1.6,i,8,0.69,3.8
C[C@H](CO)N1C[C@H](C)[C@@H](CN(C)C(=O)NC2CCCCC2)Oc2ccc(NC(=O)C3CCCCC3)cc2C1=O,3.2,-2,1&4,8&12,0.1&-1.6,i,-15,0.71,1.0
Cc1ccc(C(=O)C(C)OC(=O)CCS(=O)(=O)c2ccc(C)cc2)cc1 (configuration not stated),2.3,1,-2,0,1.4,i,2,0.6,0.7

# Some of the compounds tested; rates above refer to the full screens.
